# Assay outcomes as filed in PubChem.
# Sa growth inh – inhibitors of Staphylococcus aureus growth at 42 °C; S. aureus RN4220 growth, OD600, 20 h; hits give low values; relative growth, % (no concentration beside the values); 170,000 tested, 0.53% active; AID 720641;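 active = growth at 42 °C up to 50% and 20 or more points under that at 30 °C, or under 10% at both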;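 note: 300 nL library stock went into each well; scaled to the means of positive and negative controls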
# GIV-Gai inh – blocks GIV peptide binding to rat Galpha-i3. P08753. Galpha-i3/FITC-GIV peptide fluorescence polarization, 90 min; hits give low values; scaled: aluminum fluoride 0%, vehicle 100%. percent of control (FP), % (no concentration beside the values). 210,000 tested, 0.42% active;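 active = replicate mean at 85% of control or lower, very high polarization wells dropped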;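 note: wells of about 15 µL received 100 nL stock; the first replicate is given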
# Target sequence (P08753 whole entry, looked up): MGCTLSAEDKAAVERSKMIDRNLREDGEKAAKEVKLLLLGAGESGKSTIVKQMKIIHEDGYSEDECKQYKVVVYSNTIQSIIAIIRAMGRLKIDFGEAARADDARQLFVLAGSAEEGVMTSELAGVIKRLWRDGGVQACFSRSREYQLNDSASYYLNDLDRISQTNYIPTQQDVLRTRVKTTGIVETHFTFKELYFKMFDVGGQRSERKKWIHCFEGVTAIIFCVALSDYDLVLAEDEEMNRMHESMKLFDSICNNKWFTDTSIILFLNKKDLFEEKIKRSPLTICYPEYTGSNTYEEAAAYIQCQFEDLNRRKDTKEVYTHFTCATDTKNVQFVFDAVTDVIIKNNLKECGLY
# HCMV UL50-53 inh – inhibitors of HCMV UL50-UL53 nuclear egress complex interaction; HTRF UL50-UL53 interaction, normalized percent inhibition; inhibition, % (test concentration not listed); 190,000 tested, 0.15% active;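 active = both replicates at 50% or more, plus weaker picks with an unusually low signal ratio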;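 note: stock transfer was 100 nL into about 20 µL; 0% = negative control wells and 100% = wells with untagged competitor protein; inactives centre near -12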
# Sa growth inh second temp – second read-out of Sa growth inh, no call of its own (marks repeat the call); relative growth, %; measured here: growth at 30 °C;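 optical density after 20 h as mean of two plates; 100% = untreated growth and lower means inhibition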
# Starred values were filed as active, the others as inactive; / = not tested or not shown; & = joins results of further samples.
SMILES,Sa growth inh,Sa growth inh second temp,GIV-Gai inh,HCMV UL50-53 inh
COc1ccccc1NC(=O)C(Cc1ccccc1)NS(=O)(=O)c1ccc2c(c1)CCN2C(C)=O (stereo unspecified),112.9,89.0,103.9,-22.3
CC(NC(=O)c1ccc(C#N)cc1)C1CC2CCC1C2 (stereo unspecified),100.5,91.4,/,-9.6
Cn1c(=O)[nH]c(=O)c2c1ncn2Cc1ccc(F)cc1,90.0,85.2,102.6,/
CC(=O)Nc1ccc(Nc2ncnc3c2cnn3C)cc1,104.0,90.4,102.6,/
CCOC(=O)C(C(O)c1ccccc1)N1CCN(S(=O)(=O)c2ccc(C)cc2)CC1 (stereo unspecified),82.4,91.4,/,-32.9
CCOc1cccc2c1CCNC2=O,93.2,86.8,102.0,-35.6
COC(=O)c1ccsc1N1C(=O)C=CC1=O,96.3,96.7,104.8,-3.1
COc1ccc(O)c(-c2cc(C(F)(F)C(F)F)nc(-c3ccccc3)n2)c1,108.2,89.5,99.3,-25.9
CN(C)C(=O)COC(=O)c1ccccc1Oc1ccccc1,112.2,98.0,/,12.4
CCOC(=O)Cn1c(=O)n(-c2ccccc2OC)c2nc(-c3cccc(F)c3)nc(C(N)=O)c21,91.9,89.3,101.8,/
O=C1NC(=O)C(Cc2ccc(O)cc2)N1 (stereo unspecified),/,/,103.3,-6.9
CCn1ccc2cc(S(=O)(=O)N3CCC(C(=O)NCCc4ccccc4Cl)CC3)ccc21,85.1,91.2,99.9,/
Cc1ccc(C2=NC(C(F)(F)F)(C(F)(F)F)N=C3SCCN32)cc1,120.1,91.8,103.1,/
COc1ccc(-c2cc(C(F)(F)F)n3nc(C(=O)Nc4ccc(OC)cc4OC)cc3n2)cc1,/,/,103.7,-17.8
Cn1ncc2c(N3CCCC3CO)ncnc21 (stereo unspecified),93.6,93.2,96.4,-1.7
COCCn1nnc2cc(S(=O)(=O)N3CCCCC3C(=O)NCCN3CCCC3)ccc21 (stereo unspecified),/,/,113.3,-12.7
Clc1ccc(C2Nc3ccc4ccccc4c3C3C=CCC32)c(Cl)c1 (stereo unspecified),/,/,98.1,-11.9
CC1=C(C(=O)Nc2ccccn2)C(c2ccccc2)n2nnnc2N1 (stereo unspecified),/,/,106.9,-10.8
N#C/C(=C\c1ccc(-c2ccc(Br)cc2)o1)C(=O)Nc1ccccc1O,107.6,90.8,98.6,-23.1
O=C(c1ccc(O)cc1)c1ccc(O)cc1O,90.9,61.6,114.9,-16.2
CC(C)(C)C(=O)NCCCc1nc2ccccc2[nH]1,100.9,91.1,102.6,-9.3&-2.3
O=C1CC(c2ccccc2)N=C(SCC(=O)Nc2ccccc2)N1 (stereo unspecified),82.8,82.4,/,1.0
COc1ccc(C2NC(=O)c3[nH]nc(-c4ccccc4)c32)cc1OC (stereo unspecified),/,/,98.1,-19.0
Cc1cccc(CCNC(=O)c2cc3ccccn3n2)c1,89.8,87.1,103.8,/
O=C(Cc1ccccc1)NC1CC(=O)N(c2ccc3c(c2)OCCO3)C1 (stereo unspecified),88.5,90.3,103.1,/
# New compounds follow
SMILES,Sa growth inh,Sa growth inh second temp,GIV-Gai inh,HCMV UL50-53 inh
CC(C)NS(=O)(=O)c1ccc(OCC(=O)NC2CCCCC2)c(Cl)c1,107.5,95.1,103.5,-2.8
CCCn1c(=S)[nH]c2ccccc21,90.2&75.0,74.3&84.0,101.7,-25.4&-17.8
CCn1c(=O)c2c(O)cc(=O)oc2c2ccccc21,100.2,67.4,122.7,6.6
O=C1C(O)=C(c2ccccc2)C(c2ccc(F)cc2)N1Cc1ccc(Cl)cc1 (stereo unspecified),/,/,102.8,-16.0
CCn1c(CN(c2ccc(F)cc2)S(C)(=O)=O)nnc1SCC(=O)Nc1nc(C)cs1,/,/,104.4,-17.2
COc1ccc(-c2nnc(N)s2)cc1,87.2,69.2,107.0,-53.7
Cc1cc(C)nc(SCc2ccccc2C(=O)N2CCN(C(=O)c3ccco3)CC2)n1,90.8,92.7,/,-12.4
Cc1nc2nc3c(cn2n1)C(=O)CC(C)(C)C3,/,/,114.3,11.2
CC(C)(C)NC(=O)Cn1cc(S(=O)(=O)Cc2ccccc2)c2ccccc21,112.4,89.4,102.6,-4.0
O=C(Nc1ccccc1)c1cnc2sccn2c1=O,91.2,82.8,98.7,1.3
Cc1ccc2c(c1)CCCN2C(=O)c1ccc2c(c1)OCO2,102.8,99.4,104.7,1.7
CC(C)(C)C(=O)COC(=O)c1sc2ccccc2c1Cl,76.3,92.4,/,-21.9
COc1ccc(-c2c(C#N)c(SCC(=O)Nc3cccc(Cl)c3)nc(C)c2C(=O)Nc2ccccc2)cc1OC,104.1,101.0,107.2,11.6
Cc1c(C)c(C)c(CSC(=N)N)c(C)c1C,80.0,82.4,106.5,-8.8
COc1ccccc1N1CCN(C2C3CC4CC(C3)CC2C4)CC1 (stereo unspecified),99.6,102.1,100.7,-17.6
O=C(CCN1C(=O)c2ccccc2S1(=O)=O)Nc1cccc(C(=O)O)c1,87.2,98.4,105.2,/
N#C/C(=C\c1cc2ccccc2nc1N1CCOCC1)C(=O)Nc1ccc2c(c1)OCCO2,111.5,101.6,/,6.8
COc1ccc(C)cc1-n1nnc(C(=O)Nc2cccc(SC)c2)c1C,125.3,96.5,99.2,-27.2
COc1cccc2c1cc1c(=O)n(CC(=O)NCc3ccco3)nc(C)n12,100.2,86.3,98.5,-16.5
CC1(C(=O)O)CCC(C(=O)N2CCCCC2)C1(C)C (stereo unspecified),105.0,94.1,101.2,-33.1
CC1CCCCN1C(=O)CCn1c(=S)oc2ccccc21 (stereo unspecified),104.0,86.2,102.7,-32.1
Cc1cccc(NC(=O)CSc2nc3c(cc2C#N)C(=O)CC(C)(C)C3)c1,115.2,87.6,104.2,/
COc1ccc(NC(=O)c2oc3ccccc3c2NC(=O)c2cc(C)cc(C)c2)c(OC)c1,100.2,85.8,101.8,-41.1
CCOC(=O)Cn1c(=O)oc2cc(S(=O)(=O)N3CCCC(C)C3)ccc21 (stereo unspecified),99.8,94.0,108.2,12.1
CCN(c1ccccc1)S(=O)(=O)c1ccc(-c2cc(C)no2)s1,113.0,102.7,111.3,/

# Some of these compounds in order of molar mass, low to high:
SMILES,Sa growth inh,Sa growth inh second temp,GIV-Gai inh,HCMV UL50-53 inh
COc1ccc(-c2nnc(N)s2)cc1,87.2,69.2,107.0,-53.7
Cc1nc2nc3c(cn2n1)C(=O)CC(C)(C)C3,/,/,114.3,11.2
CC1(C(=O)O)CCC(C(=O)N2CCCCC2)C1(C)C (stereo unspecified),105.0,94.1,101.2,-33.1
Cc1ccc2c(c1)CCCN2C(=O)c1ccc2c(c1)OCO2,102.8,99.4,104.7,1.7
COc1ccccc1N1CCN(C2C3CC4CC(C3)CC2C4)CC1 (stereo unspecified),99.6,102.1,100.7,-17.6
CCN(c1ccccc1)S(=O)(=O)c1ccc(-c2cc(C)no2)s1,113.0,102.7,111.3,/
COc1ccc(C)cc1-n1nnc(C(=O)Nc2cccc(SC)c2)c1C,125.3,96.5,99.2,-27.2
Cc1cccc(NC(=O)CSc2nc3c(cc2C#N)C(=O)CC(C)(C)C3)c1,115.2,87.6,104.2,/
CC(C)NS(=O)(=O)c1ccc(OCC(=O)NC2CCCCC2)c(Cl)c1,107.5,95.1,103.5,-2.8
O=C1C(O)=C(c2ccccc2)C(c2ccc(F)cc2)N1Cc1ccc(Cl)cc1 (stereo unspecified),/,/,102.8,-16.0
COc1ccc(NC(=O)c2oc3ccccc3c2NC(=O)c2cc(C)cc(C)c2)c(OC)c1,100.2,85.8,101.8,-41.1
CCn1c(CN(c2ccc(F)cc2)S(C)(=O)=O)nnc1SCC(=O)Nc1nc(C)cs1,/,/,104.4,-17.2

# New compounds follow.
SMILES,Sa growth inh,Sa growth inh second temp,GIV-Gai inh,HCMV UL50-53 inh
Cc1cc(C)cc(Oc2coc3cc(O)ccc3c2=O)c1,111.4,89.5,103.7,/
CCOc1ccc(NC(=O)c2cc3ccccc3o2)cc1,103.2,97.3,109.7,/
O=c1c2ccc(N3CCOCC3)c3cccc(c32)c2nc3ccccc3n12,89.1,106.0,108.1,-19.9
O=C(Cc1nc2ccccc2o1)c1cccnc1,35.1,19.5,/,-15.7
O=C(COC(=O)Cn1nnc(-c2ccccc2)n1)Nc1nc(-c2ccccc2)cs1,86.6,79.5,/,-22.5
O=C(Cn1ncc2c3ccccc3n(Cc3cccc(Cl)c3)c2c1=O)NCCCN1CCCCC1,101.8,82.1,162.8,-3.1
Cc1c(C(=O)N2CCOCC2)[nH]c2c1C(=O)CC(c1ccccc1Cl)C2 (stereo unspecified),89.1,76.1,100.4,-22.4
NCCS(=O)(=O)N1CCCC1,112.7,77.7,100.5,-9.0
Cc1ccc2c(nc3s/c(=C\c4ccc(-c5ccccc5F)o4)c(=O)n32)c1C,83.3,82.7,/,-12.9
O=C(CN1C(=O)CSc2ccc(C(=O)N3CCCC3)cc21)N1CCCCC1,/,/,101.1,-20.8
Cc1nc2ccccc2n1CCc1nc2c3ccccc3nc(=S)n2[nH]1,106.0,77.1,96.8,-13.5
CCN(CCCNC(=O)CN1N=C(c2ccccc2)CCC1=O)c1ccccc1,99.1,83.6,98.2,/
Cc1cccc(NC(=O)CSc2cccc[n+]2[O-])c1C,103.9,95.5,/,-24.1
Cc1ccc(NC(=O)c2ccc3noc(-c4ccccc4)c3c2)c(C)c1,103.8,75.3,105.9,-11.3
Cc1nc2ccccc2c(=O)n1-c1ccc(C(=O)NC2(C)CCS(=O)(=O)C2)cc1 (stereo unspecified),110.8,105.8,/,8.7
c1ccc2c(c1)c1ccccc1c1nn3nnnc3nc21,42.7,29.8,102.7,-38.8
COc1ccccc1CNS(=O)(=O)c1ccc2c(c1)CC(C)N2C(C)=O (stereo unspecified),111.0,83.3,103.4,/
COC(=O)CCc1csc(N)n1,114.3,111.0,106.1,-0.6
CCC(C)(C)C(=O)Nc1ccc(Cl)cc1,110.1,110.0,100.6,-11.4
O=C1NC(=O)/C(=C/C(=O)c2ccccc2)S1,81.5,48.0,103.3,-13.3
Cn1c(CN(c2ccc(F)cc2)S(C)(=O)=O)nnc1SCC(=O)Nc1ccc(F)cc1F,/,/,101.9,-7.5
COc1ccc(-c2noc(N3CCC(C(=O)NC(C)CCc4ccccc4)CC3)n2)cc1 (stereo unspecified),114.9,83.6,101.8,-14.8
CC(C)c1ccc(NS(=O)(=O)c2ccc3[nH]cc(C(=O)N4CCCC4)c(=O)c3c2)cc1,104.6,85.5,103.3,-21.1
Cc1ccc2nc(C)cc(C(=O)OCC(=O)C(C)(C)C)c2c1,93.5,91.0,/,-7.8
COc1ccc(CN2CCN(C(=O)CN3C(=O)C4C5C=CC(C5)C4C3=O)CC2)c(OC)c1OC (stereo unspecified),102.6,97.9,99.8,19.6
# Further entries.
SMILES,Sa growth inh,Sa growth inh second temp,GIV-Gai inh,HCMV UL50-53 inh
CCC(=O)N1CCc2cc(Br)cc(S(=O)(=O)N3CCC(C(=O)Nc4cccc(C)c4)CC3)c21,98.7,88.0,102.4,1.1
O=C(c1cccc(N2C(=O)CCS2(=O)=O)c1)N1CCOCC1,/,/,111.3,41.3
CC(NC(N)=O)C(=O)OCc1ccc(Cl)cc1Cl (stereo unspecified),106.0,100.7,/,-11.8
N#Cc1nc2c(-c3nc4ccccc4s3)c(N)n(CCc3ccccc3)c2nc1C#N,89.9,79.7,112.1,-16.4
CC(Oc1ccccc1F)C(=O)Nc1ccc(-c2nc3ccccc3s2)cc1 (stereo unspecified),102.9,100.3,108.0,5.9
Nc1cc(=O)[nH]c(SCC(=O)NC2CCCCC2)n1,84.7,87.2,/,-20.6
O=c1c(N2CCCCC2)coc2ccccc12,95.0,89.1,91.9,-15.5
CSC(=Nc1ccc(Cl)cc1)N(C)C,114.4,85.6,102.0,-14.7
O=C(NCC1CCCO1)c1ccc(CS(=O)(=O)c2ccc(Cl)cc2)o1 (stereo unspecified),110.5,94.7,111.1,/
Cc1cc(=O)nc2c3ccccc3n(CC(=O)N3CCCCC3)n12,92.9,95.5,106.7,-3.6
COc1cccc(CNC(=O)c2cc(=O)[nH]c3ccc(S(=O)(=O)N4CCCCC4)cc23)c1,110.0,92.1,104.4,-16.3
COc1ccc(CNC(=O)CCS(=O)(=O)c2cc(Br)cc3c2N(C(=O)C2CC2)CC3)cc1,119.6,87.6,103.7,-1.9
OC(CN1CCOCC1)c1ccc2cc[nH]c2c1 (stereo unspecified),98.5,94.0,107.7,-3.1
CN(C)/N=C/C=C1\CCC(P(=S)(N2CCOCC2)N2CCOCC2)=C1N1CCOCC1,83.1,85.3,/,-38.6
Cc1ccc(C(CC(=O)Nc2ccc(F)c(Cl)c2)N2Cc3ccccc3C2=O)cc1 (stereo unspecified),135.6,92.5,99.9,/
O=C(Nc1ccc(Br)cc1F)c1nc(Nc2ccccc2)c2ccccc2n1,/,/,99.8,-19.9
Cc1nc(N2CCOCC2)c2c(C)c(C(=O)N3CCN(c4ccccn4)CC3)sc2n1,/,/,107.9,-15.7
CSC1=C(C#N)C(=O)NC2(CCCCC2)S1,100.7,101.5,107.2,12.9
CC(C)C12CN3CC(C(C)C)(CN(C1)C3c1ccc(N(C)C)cc1)C2=O (stereo unspecified),/,/,114.7&104.6,34.5
O=C(CCOc1ccc(F)cc1)Nc1ccc(Cl)cc1,101.1,68.7,98.1,-10.4
CCCCn1nnc(NCc2ccc(-c3cccc(Cl)c3)o2)n1,/,/,102.9,-6.6
Cc1nn(Cc2nc(-c3cccs3)no2)c(C)c1Br,106.2,99.9,101.8,2.4
Cc1cc(C)cc(NC(=O)C(=O)NC(C)c2ccccc2)c1 (stereo unspecified),105.7,88.3,104.2,-37.7
